Env fusion inh: HIV envelope-mediated fusion inhibition; HeLa-JRFL Env/CEM21 cell fusion, luciferase; inhibition, % at 12.3 µM; 360,000 compounds, 1.1% hits; AID 651610;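 active means mean replicate inhibition score of at least 50 and every replicate individually at or above 50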;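 further: 0% = plate neutral controls and 100% = maraviroc near 300 nM; one replicate is shown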
eIF4H inh: inhibitors of RNA binding by human eIF4H; Q15056; eIF4H fluorescence polarization binding assay; inhibition, % at 35 µM; 290,000 compounds, 0.94% hits; AID 2012;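 active means 50% or more with normal probe brightness, or confirmed in later tests; about a fifth of its hits are not listed in these tables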;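 further: calls also rest on retests at 20 µM and on dose response follow-up; 0% = protein and probe with vehicle and 100% = probe without protein; strong numbers were not always called active; many hits fall short of the cut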
MT1-MMP act inh: inhibitors of human MT1-MMP activation; P50281; HT1080 RFP-PRO-GFP cells, GFP/RFP ratio fluorescence, overnight; percent of plate control window, DMSO zero; GFP/RFP ratio change, % at 20 µM; 360,000 compounds, 0.061% hits; AID 651647;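 active means GFP/RFP ratio change of at least 30% with cell ATP level not reduced by more than half and red fluorescence within 50% of control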; further: strong numbers were not always called active
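Material: RFP-PRO-GFP reporter HT1080 cells. Dosing: single-point 20 µM compound, 1% DMSO. Controls: DMSO and RFP-L50D-GFP cell wells. Timing: cells overnight before dosing, compound overnight, 37 °C, 5% CO2. Measure: GFP/RFP fluorescence ratio.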
Rce1 inh: inhibitors of yeast Ras-converting enzyme; Q03530; yeast membranes, quenched prenylated peptide cleavage fluorescence; calls only; 290,000 compounds, 0.27% hits;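 active means fall in fluorescence gain of 50% or more versus controls, with final raw signal at or below 3038400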;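 further: plate controls were neutral control wells for no effect and wells lacking membranes for full effect; tested at 10 µM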
Target sequence (Q03530 whole entry, looked up): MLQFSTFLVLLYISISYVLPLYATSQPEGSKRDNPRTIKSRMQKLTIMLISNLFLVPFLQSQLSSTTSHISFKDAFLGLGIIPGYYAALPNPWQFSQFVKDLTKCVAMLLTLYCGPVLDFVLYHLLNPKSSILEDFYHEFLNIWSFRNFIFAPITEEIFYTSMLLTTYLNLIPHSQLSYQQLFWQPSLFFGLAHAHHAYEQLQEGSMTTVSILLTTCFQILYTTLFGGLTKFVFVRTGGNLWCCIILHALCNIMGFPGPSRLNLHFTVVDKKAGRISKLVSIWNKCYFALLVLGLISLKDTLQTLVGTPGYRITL
PABP polyA inh: PABP-poly(A) binding inhibition; P11940; 290,000 compounds, 1% hits; inhibition, % at 35 µM; PABP-poly(A) RNA binding, fluorescence polarization;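 active means 50% or more with normal probe brightness, or confirmed in later tests; about a fifth of its hits are not listed in these tables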;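 further: calls also rest on retests at 20 µM and on dose response follow-up; controls were probe without protein and protein plus probe with vehicle; some compounds called inactive have numbers as strong as hits; many hits fall short of the cut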
Yeast UUG start: modulators of start codon recognition fidelity in yeast | S. cerevisiae UUG-firefly luciferase reporter, luminescence/redox ratio | 350,000 compounds, 0.13% hits | AID 602363 | activity score, % at 18.7 µM;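 active means replicate mean at a twofold rise or more, about +100% in these data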;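 further: firefly luciferase made from a UUG start codon reports start codon fidelity; reporter light over untreated wells divided by growth signal over untreated wells; some hits fall short of that in this replicate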
CSC inhib: cancer stem cell inhibition. inhibition, % at 7.5 µM. cancer stem cell-like cells viability, luminescence. 300,000 compounds, 1.1% hits. AID 2717;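 active means mean at 75% or more and at least half the replicates too; tested in HMLE shEcad cells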;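 further: 0% = median of negative and 100% = median of positive control wells; the first replicate is given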
MT1-MMP act inh RFP: also measured in MT1-MMP act inh; calls as there; RFP signal change, %; measured here: RFP expression control read;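 0 = vehicle wells; hits needed this value within 50% of zero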
Numbers without * were called inactive; i = inactive; / = not tested or not shown.

SMILES	Env fusion inh	eIF4H inh	MT1-MMP act inh	MT1-MMP act inh RFP	Rce1 inh	PABP polyA inh	Yeast UUG start	CSC inhib
COc1ccc(NC(C)C(=O)N/N=C/c2ccccc2OCc2ccc(Br)cc2)cc1 (stereo not given)	/	-0.9	-0.3	-8.4	i	-3.4	-27.2	-7.8
CCN(CC)Cc1c(C(=O)N/N=C/c2ccncc2)nnn1-c1nonc1N	-25.1	5.4	-6.1	-2.9	i	1.5	-15.1	-4.3
Cc1c(N(C)S(=O)(=O)c2ccc(Cl)c(C(=O)NCC(C)(C)N3CCOCC3)c2)c(=O)n(-c2ccccc2)n1C	-0.6	/	-3.8	5.3	/	/	-15.0	/
O=c1cnnc(Nc2ccc(F)cc2)[nH]1	11.6	-3.5	-0.2	5.6	i	5.2	-22.7	14.6
O=[N+]([O-])c1ccc(F)cc1Oc1nc(-c2cccnc2)nc2ccccc12	19.0	-8.0	-7.4	-9.8	i	-8.8	/	-3.3

Entries of single compounds from above:
CCN(CC)Cc1c(C(=O)N/N=C/c2ccncc2)nnn1-c1nonc1N is entered as Env fusion inh: -25.1; eIF4H inh: 5.4; MT1-MMP act inh: -6.1; MT1-MMP act inh RFP: -2.9; Rce1 inh: i; PABP polyA inh: 1.5; Yeast UUG start: -15.1; CSC inhib: -4.3
Cc1c(N(C)S(=O)(=O)c2ccc(Cl)c(C(=O)NCC(C)(C)N3CCOCC3)c2)c(=O)n(-c2ccccc2)n1C is entered as Env fusion inh: -0.6; eIF4H inh: /; MT1-MMP act inh: -3.8; MT1-MMP act inh RFP: 5.3; Rce1 inh: /; PABP polyA inh: /; Yeast UUG start: -15.0; CSC inhib: /

Of the compounds above, 2 contain fluorine:
SMILES	Env fusion inh	eIF4H inh	MT1-MMP act inh	MT1-MMP act inh RFP	Rce1 inh	PABP polyA inh	Yeast UUG start	CSC inhib
O=c1cnnc(Nc2ccc(F)cc2)[nH]1	11.6	-3.5	-0.2	5.6	i	5.2	-22.7	14.6
O=[N+]([O-])c1ccc(F)cc1Oc1nc(-c2cccnc2)nc2ccccc12	19.0	-8.0	-7.4	-9.8	i	-8.8	/	-3.3

3 structures from above, ordered by SMILES length, low to high:
SMILES	Env fusion inh	eIF4H inh	MT1-MMP act inh	MT1-MMP act inh RFP	Rce1 inh	PABP polyA inh	Yeast UUG start	CSC inhib
O=c1cnnc(Nc2ccc(F)cc2)[nH]1	11.6	-3.5	-0.2	5.6	i	5.2	-22.7	14.6
O=[N+]([O-])c1ccc(F)cc1Oc1nc(-c2cccnc2)nc2ccccc12	19.0	-8.0	-7.4	-9.8	i	-8.8	/	-3.3
Cc1c(N(C)S(=O)(=O)c2ccc(Cl)c(C(=O)NCC(C)(C)N3CCOCC3)c2)c(=O)n(-c2ccccc2)n1C	-0.6	/	-3.8	5.3	/	/	-15.0	/

Screens: PubChem BioAssay, several laboratories
